Screens: PubChem BioAssay, ICCB-Longwood Screening Facility, Harvard Medical School
MgrA DNA FP: S. aureus MgrA-DNA binding modulation; fluorescence polarization; inhibition, %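 (about 10 µg/mL by stock and volumes)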; 84,000 compounds, 0.13% hits; AID 602314;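 active = above 50% in either of two replicates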;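 note: 0% = protein plus DNA without compound and 100% = DNA alone without protein; higher means less MgrA bound to DNA so lower polarization; one replicate is shown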
S aureus helic: S. aureus DNA helicase inhibition; 120,000 compounds, 0.05% hits; AID 485395; inhibition, %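 (tested at about 80 µM)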; purified S. aureus helicase, fluorescence unwinding assay; about half of the hits fall short of the stated cut;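 active = both duplicates at 50% or more, or one of them with a favoured structure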;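 note: 0% = mean of negative control wells and 100% = mean of positive control wells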
Starred values were filed as active, the others as inactive; . = no result given.

SMILES	MgrA DNA FP	S aureus helic
O=C(/N=C1/SCCN1CC(=O)c1ccccc1)Nc1ccccc1	.	3.0
O=C(CN1CCN(c2ccccn2)CC1)N1CCc2ccccc2C1	.	-6.0
COC(=O)C(NC(=O)C(Cc1c[nH]c2ccccc12)NC(=O)OC(C)(C)C)C(C)C (stereo not drawn)	0.5	.
CC(C)(O)/C(=C/C#N)n1cccn1	1.1	4.0
COC(=O)Cn1c(C)cc(C)c(C#N)c1=O	-4.0	-5.0
O=C(NCCN1CCOCC1)c1ccccn1	-3.3	7.0
Oc1ccccc1C=Nc1ccccc1Cl	-2.1	14.0
Cc1nn(-c2ccccc2Cl)c2sc(C(=O)N3CCCC3)cc12	2.6	-16.0
O=C(C(F)F)N1CCN(c2ccccc2)CC1	-1.4	10.0
S=C(NCCc1ccccc1)c1ccccc1	-2.1	.
Clc1ccc2nc(CSc3ncccn3)cn2c1	.	-6.0
CNC(=O)C1Cc2ccccc2CN1S(=O)(=O)c1cccs1 (stereo not drawn)	-1.3	17.0
O=C(c1sc2ccccc2c1Cl)N1CCCc2ccccc21	0.4	.
CCN1CCN(C(=O)c2nc(-c3cccnc3)no2)CC1	.	-1.0
Cc1c(CN2CC3(C)CC2CC(C)(C)C3)c(=O)n(-c2ccccc2)n1C (stereo not drawn)	-0.8	11.0

Complete entries as entered above:
O=C(C(F)F)N1CCN(c2ccccc2)CC1 across the screens: MgrA DNA FP: -1.4; S aureus helic: 10.0
O=C(NCCN1CCOCC1)c1ccccn1 across the screens: MgrA DNA FP: -3.3; S aureus helic: 7.0
O=C(c1sc2ccccc2c1Cl)N1CCCc2ccccc21 across the screens: MgrA DNA FP: 0.4; S aureus helic: .

Structures from the list above that contain four or more nitrogen atoms, in the order listed:
SMILES	MgrA DNA FP	S aureus helic
O=C(CN1CCN(c2ccccn2)CC1)N1CCc2ccccc2C1	.	-6.0
Clc1ccc2nc(CSc3ncccn3)cn2c1	.	-6.0
CCN1CCN(C(=O)c2nc(-c3cccnc3)no2)CC1	.	-1.0

The list continues.
SMILES	MgrA DNA FP	S aureus helic
COc1ccc(/C=C/C(=O)Nc2sc(C)c(C)c2C(N)=O)cc1	.	11.0
Clc1cccc2c(N3CCN(Cc4ccccc4)CC3)cnnc12	.	17.0
Cc1ccccc1NC(=S)Nc1cc(NS(C)(=O)=O)ccc1C	-2.5	.
CC1(C)CN(c2ccc(CC#N)cc2)C1=O	0.5	.
Cc1ccc(C)c(NCc2cn[nH]c2-c2ccc(Br)cc2)c1	-0.1	8.0
CCC(c1ccccc1)c1nnc(NC(=O)OC)s1 (stereo not drawn)	2.4	5.0
C1=CCC(CN2CCNCC2)CC1 (stereo not drawn)	-3.4	12.0
O=C(COc1ccc(Br)cc1)NCC1CCCO1 (stereo not drawn)	2.0	0.0
CC1SC(/N=C/c2ccc(F)cc2)=NNC1=O (stereo not drawn)	-2.6	15.0
O=C(CSc1n[nH]c(=O)[nH]c1=O)Nc1ccc(Br)cc1Br	.	11.0
O=C(CSc1nc2c(c(=O)n1-c1ccc(F)cc1)SCC2)Nc1ccc(F)cc1	.	22.0
COc1ccc(-c2n[nH]c(C)c2Oc2ccccc2)c(O)c1	0.3	2.0
Cc1ccc2c(c1)c(-c1ccccc1)c(-c1ccccc1)n2CC(O)CN1C(=O)CNC1=O (stereo not drawn)	-1.6	4.0
CN(C)c1ccc(NCc2cccc(Br)c2)cc1	0.9	12.0
O=C(CSc1ncnc2c1oc1ccccc12)c1cc2c3c(c1)CC(=O)N3CCC2	.	-43.0
COC(=O)c1cc2oc3ccccc3c2n1CC(=O)N1CCCc2ccccc21	0.1	6.0
CCOC(=O)c1ccc(N=C=S)cc1	.	6.0
Cc1ccc(NC(=O)COC(=O)c2ccc3c(=O)[nH]c(CN4CCOCC4)nc3c2)cc1C	.	-8.0
O=C(O)Cn1nc(-c2ccccc2)c2ccccc21	.	-3.0
C=CCn1c(NCc2ccccc2C)nc2ccccc21	.	17.0
COC(=O)NCCOc1ccc(C)cc1	0.2	-3.0
CC(C)(C)C(=O)Cn1c(=O)n(Cc2ccco2)c(=O)c2ccc(C(=O)NC3CCCC3)cc21	.	14.0
Cc1cc2cc(CNC(=O)c3ccccc3)ccc2[nH]1	.	-3.0
CCN(CC)C(=O)Cn1ncc2c3ccccc3n(Cc3ccccc3)c2c1=O	.	4.0
Cc1ccc(Nc2nc(C)cc(C)n2)c(Br)c1	-2.9	12.0
COc1ccc(CC(=O)Nc2cccc(-c3nc4cc5ccccc5cc4[nH]3)c2)cc1	0.7	5.0
Cc1ccc(-n2c3c(cc(C(=O)NCc4ccco4)c2=O)C(=O)CCC3)cc1	-2.4	10.0
O=C1Nc2ccccc2S/C1=C/c1ccc(C(=O)N2CCCCC2)cc1	-1.1	-5.0
OC(CN1CCNCC1)Cn1c2ccccc2c2ccccc21 (stereo not drawn)	-8.8	2.0
CC(C)(C)NC(=O)c1cccc2c1C(=O)c1ccccc1-2	-1.5	.
CC12CCC3C(C1)C(C(=O)O2)C(=O)OC3(C)C (stereo not drawn)	.	23.0
Cc1cc(NC(=O)CSc2nnc(-c3ccco3)o2)no1	1.8	12.0
COc1ccc(Cn2[nH]nnc2=S)cc1	3.5	-2.0
CC(C)CN1C(=O)C(O)(c2nnc(-c3ccccc3)o2)c2ccccc21 (stereo not drawn)	.	-5.0
CN(C)S(=O)(=O)c1ccc(C(=O)N2C(=O)c3cccc(N)c3C2=O)cc1	.	-13.0
O=S(=O)(c1cccc(NC(=S)N2CCN(c3ccc(F)cc3)CC2)c1)C(F)F	.	1.0
CCOc1ccc(NC(=O)C2CC(=O)C(C(=O)OC)=C3C(=O)NCCN32)cc1 (stereo not drawn)	.	24.0
Cc1cccc(Nc2ccc(-c3ccccc3)nn2)c1	1.7	.
Cc1ccc(-c2cc(C(=O)O)c3ccccc3n2)o1	7.5	5.0
O=C1N=C(N2CCCC2)S/C1=C/c1cccc(Cl)c1	2.5	4.0
CC1(C)CC2CC(C)(CN2C(=O)COC(=O)c2ccc(O)cc2)C1 (stereo not drawn)	.	1.0
Cc1c(OCc2ccccc2F)ccc2c1OC(C)(C)CC2=O	-1.3	.
COc1cc2ncnc(NC3CCN(Cc4ccccc4)CC3)c2cc1OC	-1.1	.
CCOC(=O)N1CCN(CC(=O)c2ccc3c(c2)CCN3C(C)=O)CC1	.	-2.0
CC12CCCC(C(=O)O)(CCC1)C2	0.1	.
CC(=O)Nc1ccc(/C=c2\sc3nc4ccccc4n3c2=O)cc1	.	-23.0
CC(=O)Nc1ccc(C(C)(C)C)cc1	1.1	.
COc1cccc(CNC(=O)CCS(=O)(=O)c2cccs2)c1	.	-14.0
NC(c1ccccc1)c1ccccc1	.	7.0
O=C(c1ccco1)N1CCN(C(=O)C(NS(=O)(=O)c2cccc3nsnc23)c2ccccc2)CC1 (stereo not drawn)	.	-28.0
Cc1c(SCC(C)C)cc(N2C(=O)c3ccccc3C2=O)cc1S(=O)(=O)c1ccccc1	-1.9	10.0
O=C1CCCC(O)=C1N=Nc1ccc(C(=O)O)cc1	.	6.0
N#Cc1ccccc1CSc1nnc2c(n1)[nH]c1ccccc12	.	28.0
Cn1c(SCC(=O)Nc2ccc(C(F)(F)F)cc2)nnc1-c1ccc2nonc2c1	-0.1	.
C=CCn1c(SCC(=O)N2CCOCC2)nc2sc(C)c(C)c2c1=O	-1.9	.
O=C(CSc1nnc2ccccn12)Nc1ccc(F)cc1	-2.1	5.0
CC(=O)NCCc1cc2cc(C)c(C)cc2[nH]c1=O	.	6.0
Cc1ccc(C)c(NC(=O)Cc2c(C)nc3c(-c4ccccc4)c(C)nn3c2C)c1	-1.0	12.0
COc1ccccc1OCCn1c(NC(=O)c2cccs2)nc2ccccc21	.	-26.0
Cc1cc(C)c(N=C=S)c(Cl)c1	.	6.0

Continuation.
SMILES	MgrA DNA FP	S aureus helic
O=C1C(=Nc2ccccc2)c2ccccc2N1Cc1ccccc1	-1.4	.
Cc1n[nH]c(C)c1N1C(=O)c2cccc3c(N)ccc(c23)C1=O	22.6	-101.0
O=C(CSc1nnc2ccccn12)Nc1ccccc1C(=O)O	.	-9.0
O=C(NCCN1CCOCC1)c1cccs1	6.8	4.0
CNC(=S)NCCc1c(C)[nH]c2ccccc12	-2.7	21.0
NC(=O)c1ccccc1NC(=O)c1cc(=O)c2ccccc2o1	-0.4	17.0
O=C(CS(=O)(=O)c1ccccc1)N1CCN(Cc2ccc3c(c2)OCO3)CC1	1.1	-9.0
CCc1ccccc1NC(=O)Cn1c(=O)oc2cc(S(=O)(=O)N3CCCCC3C)ccc21 (stereo not drawn)	0.0	8.0
CCCC(=O)c1ccc2[s+]c3ccccc3[n+](CCCN(C)C)c2c1	-0.5	3.0
O=C(C1CC1)N1CCN(C23CC4CC(CC(C4)C2)C3)CC1	-0.9	17.0
CCn1c(=O)c2cc(C(=O)NCc3cccs3)sc2c2ccccc21	2.2	19.0
COc1ccc(N(C(C)C(=O)N(C)C)S(C)(=O)=O)cc1 (stereo not drawn)	.	17.0
O/N=C(\Cc1cscn1)c1ccc(O)cc1O	.	-2.0
Cc1ccc(Oc2ccc(C#N)cc2)c(C)c1	0.1	.
O=C1CSC(c2ccc(Cl)cc2)N1CCN1CCCCC1 (stereo not drawn)	.	-6.0
COc1cc(C2C(C(=O)c3cc4cccc(OC)c4o3)=C(O)C(=O)N2c2nnc(C)s2)cc(Br)c1O (stereo not drawn)	41.8	-43.0
CCN1CCN(C(c2cccs2)C(C)NC(=O)c2ccc(F)cc2)CC1 (stereo not drawn)	.	-15.0
CN1CCN(c2nc3c(c(=O)[nH]c(=O)n3C)n2CC(O)COc2ccc(Br)cc2)CC1 (stereo not drawn)	1.8	.
CN1C(=O)CSc2ccccc21	.	-7.0
Cc1cc(C)c(NC(=O)CN(C)CC(N)=S)c(C)c1	.	-2.0
CN(C)/C=C(\C#N)c1nc(-c2ccc(Cl)cc2)cs1	-5.1	.
N#CC(C(=O)c1nc(N2CCN(Cc3ccccc3)CC2)ncc1Cl)c1nc2ccccc2c(=O)[nH]1 (stereo not drawn)	.	-3.0
COc1cc(NC(=O)CNc2cc(Cl)cc(Cl)c2)cc(OC)c1	.	-2.0
CN(C)c1cc(-c2ccc(Br)cc2)oc(=O)c1Cl	-2.2	.
CCCn1[nH]cc(SC)c(=O)c1=O	2.1	1.0
O=C(Nc1ccc2nc(CN3CCCCC3)[nH]c2c1)c1ccccc1F	.	-3.0
O=C(O)/C=C\c1cccn1-c1nccs1	-1.0	.
COc1ccc(OC)c(-c2nc(Nc3ccccc3F)sc2CC(=O)O)c1	-1.6	7.0
Cc1nc(C(C#N)c2ccccc2)cs1 (stereo not drawn)	1.4	-6.0
CN(Cc1ccccc1)C(=O)c1noc2c1CCCC2	.	13.0

Taken from above.
`CN1C(=O)CSc2ccccc21` | S aureus helic = -7.0
`CN(C)/C=C(\C#N)c1nc(-c2ccc(Cl)cc2)cs1` | MgrA DNA FP = -5.1

Following part:
SMILES	MgrA DNA FP	S aureus helic
Nc1nc(N)c2nc(CNc3ccc(C(=O)NC(CCC(=O)O)C(=O)O)cc3)cnc2n1 (stereo not drawn)	2.4	.
O=C(O)CSc1cccc(C(F)(F)F)c1	-4.2	.
CC(=O)Nc1ccc2c(c1)N(C(C)=O)c1ccccc1CC2	.	5.0
Cn1c(=O)n(C)c2cc(CNC3C4CC5CC(C4)CC3C5)ccc21 (stereo not drawn)	.	12.0
CCC(Sc1nc2ncccc2c(=O)n1Cc1ccccc1)C(=O)Nc1ccc(OC)cc1 (stereo not drawn)	.	5.0
CC(C)NC(=O)C1CCCN(c2nc3cccnc3s2)C1 (stereo not drawn)	.	0.0
CCc1ccc2c(C(F)(F)F)cc(=O)oc2c1	-1.5	.
COc1ccc(/C=C2\SC(=O)N(c3c(C)n(C)n(-c4ccccc4)c3=O)C2=O)cc1OC	.	21.0
CCc1cccc(NC(=S)N(Cc2c[nH]c3ccccc23)C2CCCC2)c1	-0.2	9.0
COc1cc(/C=N/NC(=O)Cn2ncn(-c3ccccc3)c2=O)ccc1OC(=O)CC1SC(=O)NC1=O (stereo not drawn)	.	5.0
O=C(O)CC1SC(c2cccc(Cl)c2)=NC1=O (stereo not drawn)	18.6	.
O=C(N/C=C/n1cnc2cc(C(F)(F)F)ccc21)c1ccccc1	-0.7	12.0
N=C(N)SCc1ccc(Cl)cc1Cl	-6.7	14.0
O=C(C#Cc1ccccc1)Nc1ccc(OC(F)(F)F)cc1	2.0	.
O=c1[nH]cnc2sc3c(c12)CN(Cc1ccccc1)CC3	0.3	.
CN(Cc1ccccc1)Cn1[nH]c(-c2cccs2)nc1=S	.	9.0
COC(=O)COc1coc(CN2CCN(c3cccc(Cl)c3)CC2)cc1=O	.	8.0
COc1ccccc1C(=O)NC(C)(C)CO	-0.8	.
CCOc1ccc(C(=O)Nc2ccc(S(=O)(=O)N(C)C)cc2)cc1OCC	.	-14.0
CCOC(=O)N/N=C/c1cc(Br)ccc1O	1.3	.
CCCCN(C(=S)Nc1cccc(C)c1)C1CCN(C(C)=O)CC1	-1.6	5.0
COc1cc(C2C3=C(CC(C)(C)CC3=O)Nc3ccccc3N2C(=O)C(F)(F)F)cc(OC)c1OC (stereo not drawn)	3.7	.
C=CCNc1nnc(SCC(=O)N2N=CCC2c2ccccc2)s1 (stereo not drawn)	-0.5	16.0
Nc1ccc(Sc2cc(Cl)ccc2Cl)nc1	-1.1	.
CCOc1cc(S(=O)(=O)NCc2ccc(OC)cc2)c(OCC)cc1-n1cnnn1	1.1	-14.0
COc1ccccc1NC(=O)Cn1cccc1	0.2	10.0
COC(=O)c1cn(C)c2ccc(S(=O)(=O)N3CCOCC3)cc2c1=O	.	6.0
CCOc1ccc(CN2C(=O)c3ccccc3Sc3ccc(C(=O)NC(=O)C4CCNCC4)cc32)cc1	.	14.0
COC(Cn1c(SCc2ccccc2)nnc1-c1ccccc1)OC	-1.7	.

Quoted at random: two records from the list, in no set order.
SMILES	MgrA DNA FP	S aureus helic
COc1ccccc1C(=O)NC(C)(C)CO	-0.8	.
CN(Cc1ccccc1)Cn1[nH]c(-c2cccs2)nc1=S	.	9.0

This is a subset; rates above refer to the full screens.
